# Screening data deposited in PubChem by National Center for Advancing Translational Sciences (NCATS).
# VDR inhibitor: vitamin D3 receptor (human) inhibition | P11473 | VDR-SRC2-3 peptide fluorescence polarization, 2 h | Potency, µM, for the others: max response, negative = inhibition, hits mostly inhibitors | 400,000 compounds, 0.93% hits | AID 504847; active = well fitted inhibition curve with a large enough effect; inconclusive = small, poorly fitted or top-dose-only effect, or another doubt; inactive = no such curve, though single readings can be large or run the other way; note: series mostly up to about 120 µM
# Target sequence (P11473 whole entry, looked up): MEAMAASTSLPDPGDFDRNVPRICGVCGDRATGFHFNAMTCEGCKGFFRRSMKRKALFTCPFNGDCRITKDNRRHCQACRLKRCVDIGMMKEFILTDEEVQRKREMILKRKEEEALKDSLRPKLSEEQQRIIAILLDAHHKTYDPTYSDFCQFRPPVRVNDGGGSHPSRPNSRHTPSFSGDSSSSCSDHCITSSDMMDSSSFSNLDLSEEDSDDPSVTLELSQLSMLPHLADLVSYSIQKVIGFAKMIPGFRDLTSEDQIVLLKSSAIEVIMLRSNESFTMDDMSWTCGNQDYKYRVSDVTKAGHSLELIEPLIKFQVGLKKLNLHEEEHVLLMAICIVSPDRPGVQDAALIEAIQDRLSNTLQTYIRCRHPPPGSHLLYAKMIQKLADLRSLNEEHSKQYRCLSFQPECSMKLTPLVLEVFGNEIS
#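 FP read-out; VDR + SRC2-3 coactivator peptide; 23 nl compound by pintool; 2 h RT incubation; reagents held at 4 deg C, protected from light.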
# An asterisk follows results filed as active; ? = inconclusive. % is set by controls: 0 for no effect and ±100 for the full control effect; potency is the fitted concentration of half-maximal effect. Only part of the results is shown; count on the stated rates, not on these rows.
VDR inhibitor | SMILES
-15% | O=S1(=O)C2CC3C=CC2(O3)C(O)C(Cc2ccccc2)N1Cc1cccc(C(F)(F)F)c1 (stereo not drawn)
-10% | CC(=O)Nc1ccccc1-c1nc2ccccc2nc1OCC(=O)c1ccc2ccccc2c1
-10% | COc1cccc(NC(=O)C(c2ccccc2)N2CCCCC2)c1 (stereo not drawn)
-21% | O=C(NCc1ccco1)c1ccc(COc2ccccc2Cl)cc1
13% | Cc1ccc(N2CCN(S(=O)(=O)c3ccc4oc(=O)c5ncn(C)c5c4c3)CC2)c(C)c1
-4% | Cc1cc(C)cc(OCC(=O)N(Cc2ccc(N(C)C)cc2)C2CCS(=O)(=O)C2)c1 (stereo not drawn)
-6% | CCNc1nnc(-c2ccccc2OC)s1
-8% | CN(CC(=O)Nc1ccccc1Br)C(=O)c1cccnc1Nc1cccc(C(F)(F)F)c1
8% | NC(=S)n1[nH]c(-c2ccc([N+](=O)[O-])cc2)c(N=Nc2cccc(Cl)c2)c1=O
-2% | CCc1ccc(OCC(=O)N(Cc2ccc(Cl)cc2)C2CCS(=O)(=O)C2)cc1 (stereo not drawn)
-12% | CC(CCc1ccccc1)NC(=O)CN1CCN(c2ccccc2)CC1 (stereo not drawn)
-13% | CCN(C(C)=O)c1ccc(Oc2nc(OC)cc(OC)n2)cc1
9% | COc1ccc(CCNC(=O)CCCCn2c(=O)c3ccccc3n(Cc3ccc(F)cc3Cl)c2=O)cc1OC
3% | COc1ccc2c(c1)oc(=O)c1c3ccccc3[nH]c21
-9% | CCC1(C)Cc2nc3[nH]c(=S)n(-c4ccccc4C)c(=O)c3cc2CO1 (stereo not drawn)
-1% | CCOC(=O)N1CCN(S(=O)(=O)c2ccc(C)c(C)c2C)CC1
-12% | CCN(CC)C(=O)Cn1cc(C(=O)C(=O)NCC2COc3ccccc3O2)c2ccccc21 (stereo not drawn)
-8% | COc1cccc(Nc2nc(-c3cccc(N4C(=O)c5ccccc5C4=O)c3)cs2)c1
-1% | CCOC(=O)C1CCCN(C(=O)c2cccc(NC(=O)C(CC)CC)c2)C1 (stereo not drawn)
-7% | CCN(Cc1ccccc1)C(=O)c1sc2nc3n(c(=O)c2c1C)CCCC3

VDR inhibitor | SMILES
-9% | CC(C)NC(=O)COc1cccc2ccccc12
-16% | CCN(CC)C(=O)C12CC3CC(CC(Cl)(C3)C1)C2
-3% | Cc1ccc2c(Br)cc(Br)c(O)c2n1
7% | CCOc1ccccc1NC(=O)C(=O)c1cc(C)n(-c2ccc(F)cc2)c1C
-4% | O=C(CCC(=O)OCc1ccc([N+](=O)[O-])cc1)Nc1ccccc1Cl
12% | CCOC(=O)c1ccc(NC(=O)c2cc3c(n(-c4ccc(C)cc4)c2=O)CC(C)(C)CC3=O)cc1
3% | O=C(/C=C/c1cccc(F)c1)NCCCn1ccnc1
1% | O=C1NC(c2cccc(Br)c2)=N/C1=C\c1ccco1
22% | CCN1CCN(C(=O)c2ccccc2NC(=O)c2ccc(Cl)cc2)CC1
-1% | Cc1[nH]c2ccc(C(=O)NCCCN3CCCC3)cc2c1C
-3% | O=C(Cc1ccccc1[N+](=O)[O-])NCc1ccccc1Cl
? | CCCCN(CC)C(=O)C1CCCN(S(=O)(=O)c2cccc3nsnc23)C1 (stereo not drawn)
-6% | Cc1nn(C(=O)c2ccco2)c(C)c1Sc1ccc(Br)cc1
-20% | Cc1cccnc1NC(=O)c1cc2c(=O)oc3ccccc3c2s1
6% | CSCC(=O)N1CCC(n2nccc2NC(=O)CCCc2ccccc2)CC1
6% | COc1ccc(NC(=O)CC(C)S(=O)(=O)c2ccc3c(c2)NC(=O)CO3)cc1OC (stereo not drawn)
6% | CCCC(=O)Nc1ccc(N2CCN(C(=O)c3ccccc3C)CC2)cc1
9% | O=C1CSCC(=O)N1c1ccccc1
-13% | C=CCN(c1ccccc1)S(=O)(=O)c1ccc2c(c1)NC(=O)C(C)C(=O)N2 (stereo not drawn)
-16% | C=C1CN(C(C(=O)OC)C(C)C)S(=O)(=O)c2ccc(F)cc21 (stereo not drawn)

# Seven records picked at random from those above:
VDR inhibitor | SMILES
6% | COc1ccc(NC(=O)CC(C)S(=O)(=O)c2ccc3c(c2)NC(=O)CO3)cc1OC (stereo not drawn)
1% | O=C1NC(c2cccc(Br)c2)=N/C1=C\c1ccco1
-20% | Cc1cccnc1NC(=O)c1cc2c(=O)oc3ccccc3c2s1
-16% | C=C1CN(C(C(=O)OC)C(C)C)S(=O)(=O)c2ccc(F)cc21 (stereo not drawn)
? | CCCCN(CC)C(=O)C1CCCN(S(=O)(=O)c2cccc3nsnc23)C1 (stereo not drawn)
-3% | Cc1ccc2c(Br)cc(Br)c(O)c2n1
3% | O=C(/C=C/c1cccc(F)c1)NCCCn1ccnc1

# Carrying on.
VDR inhibitor | SMILES
-11% | O=C(CN1C(=O)COc2ccccc21)Nc1ccc2c(c1)OCCO2
-10% | Cc1nnc(SCc2ccccc2)n1N
12% | COc1ccc(S(=O)(=O)N2CCC(C(=O)Nc3ccc(OC)c(OC)c3)CC2)cc1C
8% | C/C(=N\NC(=O)C(c1ccccc1)c1ccccc1)c1ccc(O)cc1
0% | CCOC(=O)c1[nH]c2ccc(OC)cc2c1NC(=O)NC(C)C
6% | Cc1ccc(C(C)C)c(OCC(=O)Nc2cccc(-c3nc4ncccc4o3)c2)c1
8% | COc1cc(/C=N/n2c(-c3cc(C)[nH]n3)n[nH]c2=S)cc(OC)c1OC
-12% | COc1ccc(CN(C(=O)c2ccco2)c2ccccc2)cc1
4% | COC(=O)c1ccccc1NC(=O)CCC(=O)N1CCOc2ccccc21
10% | COc1ccccc1NC(=O)C1Cc2ccccc2CN1C(=O)c1ccco1 (stereo not drawn)
? | O=C(c1ccco1)N1CCC2(CCCN(c3ccccc3)C2)CC1
-8% | O=C(CCCN1C(=O)C2CC=CCC2C1=O)Nc1cccc(F)c1 (stereo not drawn)
15% | CCC(C)N(C(=O)COC(=O)c1cc([N+](=O)[O-])ccc1N)C1CCS(=O)(=O)C1 (stereo not drawn)
-10% | CCOCCCn1c(=S)[nH]c2cc(C(=O)NCc3ccc(F)cc3)ccc2c1=O
2% | O=C1[C@@H]2C(Cc3ccc(O)cc3)NC3(C(=O)Nc4ccc(F)cc43)[C@@H]2C(=O)N1c1ccccc1 (stereo partly drawn)
-7% | Cc1ccc(N2CC(C(=O)NCCc3ccc(S(N)(=O)=O)cc3)CC2=O)cc1 (stereo not drawn)
14% | COc1ccc(N2CCN(C3CCCCC3NS(=O)(=O)c3ccccc3)CC2)cc1 (stereo not drawn)
1% | CC(c1nc2ccccc2c(=O)[nH]1)N(C)c1ccc2ccccc2c1 (stereo not drawn)
11% | COc1cccc(CNC(=O)C2CCN(S(=O)(=O)c3ccc4c(ccn4C)c3)CC2)c1
9% | CCOc1ccc(OCC)c(NS(=O)(=O)c2c(C(=O)N3CCC(C)CC3)c(C)n(C)c2C)c1

VDR inhibitor | SMILES
13% | COc1ccc2oc(=Nc3cccc(F)c3)c(C(N)=O)cc2c1
-3% | CCNCCC(=O)N1c2ccccc2Sc2ccc(C(F)(F)F)cc21
-3% | O=S(=O)(c1cnc2ccccc2c1)N1CCN(c2nc(-c3cccs3)nc3ccccc23)CC1
18% | NC(=O)COC(=O)[C@H](Cc1c[nH]c2ccccc12)NC(=O)c1ccc(F)cc1
-12% | O=C1Nc2cc(C(=O)N3CCN(Cc4ccccc4)CC3)ccc2SC1N1CCOCC1 (stereo not drawn)
-7% | CC(C)(C)C(=O)NCc1ccc(C(=O)CN2C(=O)NC3(CCCC3)C2=O)s1
16% | Cc1ccc(S(=O)(=O)n2nc(-c3ccco3)nc2NCc2ccccc2Cl)cc1
25% | O=C(NCc1cccnc1)c1cc2nc(-c3cccs3)cc(C(F)(F)Cl)n2n1
-1% | CCc1cc(SC#N)ccc1N
15% | CC1(C)CC(=O)C2=C(C1)Nc1ccccc1[S@]2=O
8% | COc1ccc(N2C(=O)CSC23CCC(C(C)(C)C)CC3)cc1 (stereo not drawn)
-7% | O=C(COc1ccc([N+](=O)[O-])cc1)Nc1ccc(NC(=O)c2ccccc2)cc1
-8% | CCOC(=O)c1ccc(NC(=S)N(CCCN2CCCC2)Cc2ccco2)cc1
12% | CCOc1cc(/C=N/NC(=O)c2cccnc2)ccc1OCc1ccc(C(=O)OC)o1
22% | N#CC1=C2SCC(O)(c3ccccc3)N2C(=O)CC1c1ccccc1 (stereo not drawn)
-22% | COc1ccc(CN(C)S(=O)(=O)c2nnc(NC(=O)c3ccc(C)cc3)s2)cc1OC
1% | Nc1nnc(SCC(=O)OCc2ccc(F)cc2)s1
1% | CC(NC(=O)C(=O)NCCCn1ccnc1)c1ccccc1 (stereo not drawn)
-9% | O=C(O)C1CCN(S(=O)(=O)c2ccc(N3CCCC3C(=O)O)c([N+](=O)[O-])c2)CC1 (stereo not drawn)
13% | O=C(CSc1nn(-c2ccccc2)c(=S)s1)Nn1cnnc1

VDR inhibitor | SMILES
2% | CN(Cc1ccccc1)C(=O)c1cccc(N2C(=O)C3CC=CCC3C2=O)c1 (stereo not drawn)
2% | COc1ccc2c(c1OC)C(=O)N1c3ccccc3C(=O)OC21 (stereo not drawn)
-26% | COC(=O)C1=CN(Cc2ccccc2)C=C(C(=O)OC)C1c1ccc(O)c(OC)c1
? | Cc1cccc(NC2=CC(c3cccc(Br)c3)N(c3cccc(C)c3)C2=O)c1 (stereo not drawn)
-3% | CN(C)C(CN=C1NS(=O)(=O)c2ccccc21)c1ccco1 (stereo not drawn)
-14% | Cc1oc(-c2cccs2)nc1CS(=O)CC(=O)NCCCOC(C)C (stereo not drawn)
? | Cc1cc(C)c(NC(=O)CS)c(Cl)c1
-7% | CC1CCCCC1NC(=O)CSc1nncn1N (stereo not drawn)
-2% | COc1ccc(Cc2nnc(SCC(=O)NCC3CCCO3)o2)cc1 (stereo not drawn)
2% | COc1ccccc1OCC(=O)Nc1cccc(C(=O)N2CCOCC2)c1
-4% | N#Cc1ccccc1NC(=O)COC(=O)c1cccs1
-4% | CC(C)CC1(C)NC(=O)N(CC(=O)Nc2cccc(S(=O)(=O)N(C)c3ccccc3)c2)C1=O (stereo not drawn)
14% | O=S1(=O)[C@H]2C[C@@H]3C=C[C@@]2(CN1Cc1cccc(C(F)(F)F)c1)O3
? | Cc1cccc(NC(=S)NCC23C=CC(O2)C2C(=O)N(c4ccc(Cl)cc4)C(=O)C23)c1 (stereo not drawn)
-3% | CN1CCC(N(C)C(=O)c2cccc(S(=O)(=O)N3CCc4ccccc43)c2)CC1
-5% | CCOc1ccc(-n2nnnc2SCC(=O)c2ccccc2)cc1
8% | CC(=O)c1cc(C#N)c(NCc2ccccc2)nc1C
1% | COc1ccc(OCCCn2c(=O)oc3ccccc32)cc1
2% | O=C(NNC(=S)NC1CC2CCC1C2)c1ccc(Cl)cc1 (stereo not drawn)
6% | Cc1cccc(-c2nnc(SCC(=O)NC3CC3)n2C)c1

# 3 compounds from above, ordered by their value in VDR inhibitor, smallest number first:
SMILES,VDR inhibitor
CN1CCC(N(C)C(=O)c2cccc(S(=O)(=O)N3CCc4ccccc43)c2)CC1,-3%
COc1ccc(OCCCn2c(=O)oc3ccccc32)cc1,1%
COc1ccccc1OCC(=O)Nc1cccc(C(=O)N2CCOCC2)c1,2%

# Continued:
VDR inhibitor | SMILES
-16% | COc1ccc(-c2cc(O)cc(O)c2)cc1
-17% | Cc1ccc(NC(=O)CN2CCOCC2)cc1S(=O)(=O)N1CCCCC1
2% | CC1(C)SC(=S)N(Cc2ccc3c(c2)OCO3)C1N(O)C(=O)NC1CCCCC1 (stereo not drawn)
-18% | Cc1ccc(CCN2CC(C(=O)NCc3ccco3)CC2=O)cc1 (stereo not drawn)
5% | COc1ccccc1NS(=O)(=O)c1cccc(C(=O)NNC(=O)c2ccc(NC(C)=O)cc2)c1
-6% | COc1ccc(S(=O)(=O)N(C)C[C@H]2Oc3ccc(NC(=O)Nc4ccc5c(c4)OCO5)cc3C(=O)N([C@H](C)CO)C[C@@H]2C)cc1
-2% | CSc1ncnc2ncn(C)c12
-6% | COc1ccc(-c2noc(CCC(=O)Nc3cccnc3)n2)cc1
-18% | Cc1ccc(OCCn2c(COc3ccc(Cl)cc3)nc3ccccc32)cc1
5% | CCC(C(=O)Nc1ncn[nH]1)(C(F)(F)F)C(F)(F)F
5% | CC1(C)COC(c2cc([N+](=O)[O-])ccc2Cl)=N1
-5% | Cc1nc2ccc(S(=O)(=O)N(CC(=O)Nc3ccc(Cl)cc3)Cc3ccccc3)cc2s1
13% | Cc1ccc(S(=O)(=O)c2nnn3c2nc(NCCc2ccccc2)c2sccc23)cc1
23% | O=C(Nc1ccc2nc(SCC(=O)N3CCCC3)sc2c1)c1cccc(Cl)c1
7% | O=C(N/C(=C\c1ccc(F)cc1)C(=O)N1CCCCCC1)c1ccccc1
5% | Cc1nnc2c(Nc3cccc(O)c3)nc3ccccc3n12
2% | Cc1cc(C(F)(F)F)c2c(N)c(C(=O)Nc3c(Cl)cccc3Cl)sc2n1
0% | CCOC(=O)c1c(C)[nH]c(N=Nc2ccc(C)cc2C)c1C

# Given tab-delimited: part of the list above.
Molecule	VDR inhibitor
Cc1ccc(S(=O)(=O)c2nnn3c2nc(NCCc2ccccc2)c2sccc23)cc1	13%
O=C(Nc1ccc2nc(SCC(=O)N3CCCC3)sc2c1)c1cccc(Cl)c1	23%
O=C(N/C(=C\c1ccc(F)cc1)C(=O)N1CCCCCC1)c1ccccc1	7%
Cc1nnc2c(Nc3cccc(O)c3)nc3ccccc3n12	5%
